High-throughput results from PubChem.
PrP UTR inh = suppresses PrP 5' UTR mRNA reporter expression. cell-based PrP 5' UTR mRNA reporter, plate reader. inhibition, % (no concentration beside the values). 0.35% of 340,000 active;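 active means every replicate at 50% or more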;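 further: 0 = median of the neutral control wells; tested in H4 reporter cells; numbers are from one replicate; inactives centre near -14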
Bead autofluor = counter-screen for toxin protease inhibitors: compound fluorescence; compound autofluorescence counterscreen, microsphere flow cytometry; stronger effect = higher value; fluorescence intensity (concentration not given with the values); 3.1% of 360,000 active; AID 624483;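 active means at least 3 SD above the mean of all compounds, about 16000 in these data; inconclusive means too few beads counted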;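 further: 100 nL of 1 mM stock went into each well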
BJeLR lethal = BJeLR cell viability loss. BJeLR (HRASV12) viability, CellTiter-Glo ATP luminescence, 48 h; reference of the scale not given here. inhibition, % (concentration not given with the values). 0.17% of 300,000 active;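 active means replicate mean above 50%; inconclusive means above 50% but judged a plate artefact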;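 further: 50 nL library stock added to about 25 µL; numbers are from one replicate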
Mtb hypoxia inh = reduces hypoxia-regulated biosensor signal in M. tuberculosis | M. tuberculosis hypoxia-regulated fluorescent reporter, fluorescence | fluorescence inhibition, % (no concentration beside the values) | 0.1% of 300,000 active | AID 1159583;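 active means 35 to 45% if threefold the growth effect, above 45% if 1.5-fold the growth effect; inactive means the rest, general growth blockers included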;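 further: wells of about 50 µL received 100 nL stock; 0% = vehicle wells and 100% = reference inhibitor wells; whole bacteria with a GFP reporter of the hypoxia response; strong numbers were not always called active; many hits fall short of the cut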
Sa RN4220 lethal = S. aureus RN4220 growth inhibition; OD600, 16 h; inhibition, % (concentration not given with the values); 0.33% of 330,000 active; AID 1259311;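 active means z-score of -3 or lower and OD600 up to 0.18 on both plates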;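 further: plate controls were untreated cells for no effect and reference antibiotic for full effect; stock transfer was 100 nL into about 80 µL; one replicate is shown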
ugtP null kill = compounds lethal to S. aureus RN4220 ugtP deletion mutant. OD600 growth, 16 h; some inactives read as strong as hits. growth inhibition, % (test concentration not listed). 0.54% of 330,000 active. AID 1259309;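 active means z-score under -3 and OD600 up to 0.15 on both plates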;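 further: plate controls were untreated wells for no effect and antibiotic for full effect; wells of about 80 µL received 100 nL stock; the first replicate is given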
Mtb hypoxia inh growth = recorded beside Mtb hypoxia inh, whose call it bears; growth inhibition, %; measured here: M. tuberculosis growth (absorbance);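 0% = vehicle and 100% = reference antibiotic; read after six days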
* = called active by the depositor; ? = inconclusive; . = not tested or not shown. Compounds were not picked by outcome. About 4% of those tested had a hit in this group.

SMILES	PrP UTR inh	Bead autofluor	BJeLR lethal	Mtb hypoxia inh	Mtb hypoxia inh growth	Sa RN4220 lethal	ugtP null kill
Cc1ccc(C(C(=O)NC(C)(C)C)N(CC2CCCO2)C(=O)c2csnn2)cc1 (centres undefined)	-23	3988	1	-1	-5	0.3	5
CCC(=O)Nc1ccc(C(=O)NNC(=O)C(c2ccccc2)c2ccccc2)cc1	3	2714	8	10	1	5.2	7
NC(=O)CC(NC(=O)c1ccccc1)c1ccc(NCCc2ccc(F)cc2)c([N+](=O)[O-])c1 (centres undefined)	-12	3908	2	11	-2	4.4	0
O=C(Cc1ccccc1)N1CCCC(c2nc(-c3cccs3)no2)C1 (centres undefined)	-21	23522*	15	8	2	-1.4	-3
CCC(C)NC(=O)Cn1nc(C(F)(F)F)c2c1CCC2 (centres undefined)	-6	4246	-7	5	-3	2.3	5
CC(=NNC(=O)c1nnn(-c2nonc2N)c1C(C)C)c1ccc2ccccc2c1	.	.	.	-8	-8	-5.0	-3
S=C(Nc1ccccc1)Nc1cc(Cl)ccc1Oc1ccccc1	-14	3672	6	21	15	-11	-4
O=C(NCC(=O)N(Cc1cccs1)C(C(=O)NC1CCCCC1)c1cccnc1)c1ccco1 (centres undefined)	-23	2893	1	.	.	1.6	-2
CCOC(=O)NN=Cc1ccc(OC/C=C/c2ccccc2)c(OC)c1	.	.	.	9	6	-0.9	6
COc1ccc(OCC(=O)NC(=S)N2CCCc3ccccc32)cc1	-29	8898	4	-5	-13	-0.3	-8
O=C(NN=Cc1ccc2c(c1)OCO2)C(=O)Nc1ccc2ccccc2c1	.	.	.	2	-5	5.7	1
CCOC(=O)c1c(N)nn(C(=O)CC)c1-c1ccccc1	-21	8539	0	-51	34	1.3	7
CCCOC(=O)C1C2C=CC3(CN(c4cccc(Cl)c4)C(=O)C13)O2 (centres undefined)	-35	5531	14	.	.	0.7	4
CN(C)C(=O)CSc1n[nH]c(=O)[nH]c1=O	1	2124	-3	4	6	2.4	6
C(=NNc1ccccn1)c1ccc(N2CCOCC2)cc1	.	.	.	12	12	1.8	0
O=C(Nc1cccnc1Cl)C1c2ccccc2Oc2ccccc21	-23	3247	-3	8	9	3.2	2
O=C(c1ccc(Br)cc1)c1cn[nH]c1-c1ccccc1O	-19	3609	6	.	.	.	.
CCC(Sc1nncn1C)C(=O)Nc1cc(C)on1 (centres undefined)	-6	4403	13	7	-4	4.6	9
O=C(CN1CCCCCC1)Nc1ccccc1OC(F)F	-9	3242	-5	2	-7	1.5	-1
Cc1cc2cc(C)c3nnc(SCC(=O)N4CCN(C(=O)c5ccco5)CC4)n3c2cc1C	-5	11297	-3	16	11	3.9	10
Cc1ccc(N=C2CCCCCN2C)c(C#N)c1	-9	3668	1	4	0	-3.4	-2
C=C(C)CSc1nc2ncc(Cl)cc2[nH]1	-29	8410	-5	9	4	2.1	0
COCCN(C(=O)COC(=O)CCc1nc2ccccc2s1)c1c(N)n(Cc2ccccc2)c(=O)[nH]c1=O	6	6345	0	-1	-4	0.5	-1
C/C(=N\NC(=O)c1ccc(NS(=O)(=O)c2cccs2)cc1)c1ccc(Cl)cc1	-10	2112	-19	.	.	.	.
CCc1nnc(NC(=O)c2cccc(S(=O)(=O)N3CCN(C(C)=O)CC3)c2)s1	.	6224	.	5	7	3.1	3
CCOC(=O)C(NC(=O)Nc1ccc(F)cc1)(OCC)C(F)(F)F (centres undefined)	-19	4800	-4	.	.	5.0	-9
COc1ccc(C(=O)Nc2cc(OC)c(Cl)cc2OC)cc1	-53	4944	10	0	8	3.0	28
O=C(COc1ncnc2sccc12)N1CCc2ccccc2C1	5	10304	5	-1	9	5.1	-2
CCc1nnc(NC(=O)CSc2nc3cc4c(cc3cc2CC)OCCO4)s1	-17	4459	-13	5	7	8.1	-11
COc1ccc(NC(=O)CSc2nc3c([nH]c4ccccc43)c(=O)n2C)c(OC)c1	18	4322	0	10	2	3.1	9
COC(=O)Nc1ncc(CN2CCc3ccccc3C2)s1	-27	10408	-10	10	8	2.8	4
CCCOCc1ccc(O)c2ncccc12	-16	3852	11	17	19	15	15
O=C(NCC(c1ccco1)N1CCc2ccccc2C1)c1ccc(Br)cc1 (centres undefined)	-19	?	6	-7	5	-4.7	9
C[C@]12C(=O)N(c3ccc(Br)cc3)C(=O)N1C1c3ccccc3OCC1C2c1ccccc1 (some centres undefined)	.	.	.	-1	10	-9.0	0
Cc1ccc(C)c(S(=O)(=O)N2CCN(C(=O)Cc3ccccc3)CC2)c1	-20	5844	2	1	13	0.3	5
CN(CC(=O)Nc1cccc(F)c1)C(=O)CNC(=O)Cc1cccc2ccccc12	-32	6217	.	1	-2	-2.8	-9
COc1cccc(C2c3[nH]c4ccccc4c3CCN2Cc2cccc(C)n2)c1 (centres undefined)	-8	2332	14	2	1	2.4	-4
CCC(c1nnnn1Cc1ccco1)N1CCC(C(N)=O)CC1 (centres undefined)	-5	4751	24	.	.	-0.5	2
NC(=O)[C@@H]1CCCN1Cc1c(C(=O)N2CCN(C3CCCCC3)CC2)nc2ccccn12	-9	4899	-14	0	-2	2.3	4
Nc1nc(SCn2nnc3ccccc3c2=O)n[nH]1	-17	4401	4	-5	0	-2.7	1
Cn1cccc1-c1cc(C(=O)N/N=C/c2cc(Br)ccc2O)[nH]n1	25	5138	24	.	.	.	.
CCN(CC(=O)Nc1ccc(N2CCOCC2)cc1)C(=O)c1ccc(C(F)(F)F)cc1	-14	2310	-1	-5	9	-1.2	0
CSC1=N/C(=C\c2ccc(C)cc2)C(=O)S1	-12	2511	-7	.	.	4.8	0
O=C(NN=Cc1cc(Br)cc(Br)c1O)c1cccc(S(=O)(=O)N2CCOCC2)c1	.	.	.	18	0	-1.5	-4
O=c1nc2n(c3c1oc1ccccc13)Cc1ccccc1-2	-25	.	4	5	-4	3.0	3

Record cards, as listed above. Order of screens: PrP UTR inh	Bead autofluor	BJeLR lethal	Mtb hypoxia inh	Mtb hypoxia inh growth	Sa RN4220 lethal	ugtP null kill
`O=C(NN=Cc1cc(Br)cc(Br)c1O)c1cccc(S(=O)(=O)N2CCOCC2)c1` in the list: .	.	.	18	0	-1.5	-4
`Cc1ccc(C)c(S(=O)(=O)N2CCN(C(=O)Cc3ccccc3)CC2)c1` in the list: -20	5844	2	1	13	0.3	5

Rewritten with bars between the fields: entries from further up.
SMILES | PrP UTR inh | Bead autofluor | BJeLR lethal | Mtb hypoxia inh | Mtb hypoxia inh growth | Sa RN4220 lethal | ugtP null kill
CCCOC(=O)C1C2C=CC3(CN(c4cccc(Cl)c4)C(=O)C13)O2 (centres undefined) | -35 | 5531 | 14 | . | . | 0.7 | 4
CCOC(=O)c1c(N)nn(C(=O)CC)c1-c1ccccc1 | -21 | 8539 | 0 | -51 | 34 | 1.3 | 7
CCOC(=O)C(NC(=O)Nc1ccc(F)cc1)(OCC)C(F)(F)F (centres undefined) | -19 | 4800 | -4 | . | . | 5.0 | -9

Further compounds
SMILES	PrP UTR inh	Bead autofluor	BJeLR lethal	Mtb hypoxia inh	Mtb hypoxia inh growth	Sa RN4220 lethal	ugtP null kill
Cc1cccc(NC(=O)CN2C(=S)NC(C)(C)CC2C)c1C (centres undefined)	3	7267	-1	5	3	3.8	1
COc1ccccc1OCC(=O)NCc1nc(-c2ccccc2)no1	-5	3148	-21	14	9	7.2	7
CCOC(=O)NN=C/C=C/c1ccc2c(c1)OCO2	.	.	.	-11	-11	1.4	6
Cc1ccc(-n2nnnc2CNC(=O)c2ccc(Br)o2)cc1C	-7	5520	-5	4	8	2.9	4
CCOc1cc(C=NNc2cc(C)nc3ccc(C)cc23)ccc1O	.	.	.	1	6	3.6	-12
Nc1ccccc1SC1CC(=O)N(c2ccc3c(c2)OCCO3)C1=O (centres undefined)	-40	5555	3	9	-1	3.5	12
O=C(Cc1ccc(-n2cccc2)cc1)NC1CCCCC1	-16	2649	7	.	.	-3.7	-4
O=C(Cn1cc(C(F)(F)F)ccc1=O)NN=Cc1ccc(Cl)cc1Cl	.	.	.	-11	16	3.0	-1
COc1ccc(Cn2nnnc2C(c2ccccc2OC)N2CCC(C(N)=O)CC2)cc1 (centres undefined)	-19	3723	-4	.	.	6.0	-3
COC(=O)C(CC(=O)Nc1cc(C)ccc1C)Nc1ccccc1OC (centres undefined)	-14	4419	3	.	.	6.2	-1
O=C(COC(=O)c1ccc([N+](=O)[O-])o1)NCCc1ccccc1	-22	4010	.	22	24	9.1	3
Cc1ccc(NC(=O)NC(=O)CN2C(=O)NC3(CCc4ccccc43)C2=O)c(C)c1 (centres undefined)	4	3959	-11	17	12	-2.3	-2
O=C(N/N=C/c1ccncc1)c1cc([N+](=O)[O-])cc([N+](=O)[O-])c1O	1	3330	-3	.	.	.	.
Cn1c(C2=C(O)CN(c3ccc4c(c3)OCCO4)C2=N)nc2ccccc21	-14	7818	6	9	9	2.5	9
Cc1cc(C)n(CC(O)COc2ccc(Cl)cc2Cl)n1 (centres undefined)	-20	3842	-7	.	.	.	.
COc1cc(/C=N/NC(=S)NCC2CCCO2)cc(OC)c1OC (centres undefined)	-9	5190	-6	.	.	.	.
CCOC(=O)c1sc(NC(=O)CSc2nnnn2-c2ccc(C)cc2C)nc1C	-13	3260	-2	-3	5	2.0	0
CC1(NC(=O)C23CC4CC(CC(C4)C2)C3)CCS(=O)(=O)C1 (centres undefined)	-10	8422	1	4	3	2.4	1
Cc1sc2nc(NCCO)[nH]c(=O)c2c1C	-12	4388	3	4	0	3.1	7
Cc1ccc2[nH]c(C)c(/C=N/Nc3nc4ccccc4s3)c2c1	-26	10535	-4	.	.	.	.
CN(C)CC1CSCCC1(O)c1ccc(Cl)cc1 (centres undefined)	-7	3901	1	.	.	0.7	9
COc1cc(C=NNC(=O)c2csc3c2CCCC3)cc(OC)c1O	.	.	.	9	21	3.3	2
O=C(COc1ccccc1)NCC(=O)NN=Cc1cccs1	.	.	.	8	13	0.4	10
CN1C(=O)C2C(C=Cc3ccccc3)N3C(=O)CN(CC4CC4)C(=O)[C@@]3(C)C2C1=O (some centres undefined)	.	.	.	13	10	1.6	-4
COc1ccccc1OCC(=O)NNC(=O)CSC(=S)N1CCCC1	.	.	.	8	-4	1.4	0
COc1ccc(NC(=O)CN(C)C2CCCCC2)cc1Cl	-15	5403	4	12	8	1.7	-1
O=C(NN1C(=O)c2ccccc2NC12CCCCC2)c1ccccc1	-11	4347	10	-4	8	3.0	-3
CC1CCN(C(=O)CSc2nc3ccccc3s2)CC1	-60	23396*	-3	.	.	.	.
C/C(O)=C(/C#N)c1nc2ccccc2[nH]1	1	2294	-9	.	.	.	.
Nn1c(SCc2ccc(C(=O)O)cc2)nnc1-c1ccc(Cl)cc1Cl	-25	3579	-3	2	6	2.7	-6
CCOc1cc(CNc2ccc(N3CCN(C(C)=O)CC3)cc2)cc(Br)c1OC	6	2162	-1	13	6	5.0	4
CC(OC(=O)CCCN1C(=O)c2ccccc2C1=O)C(=O)Nc1ncc(Cl)cc1Cl (centres undefined)	-8	3923	-7	10	8	3.3	-2
Cc1snc(SCC(=O)c2ccc(Cl)cc2)c1C#N	-137	22846*	3	4	-1	7.8	-3
Cc1ccc(-n2c(Cc3cccn3C)nnc2SCC(=O)N2CCN(c3ccccc3)CC2)cc1	-4	11064	8	3	3	4.1	-4
O=C(O)CC(NC(=O)C1CCCCC1)c1cc([N+](=O)[O-])ccc1Cl (centres undefined)	-20	4086	-12	8	2	12	4
CCS(=O)(=O)c1ccc(O)c(NC(=O)NC2CCCCC2)c1	-14	4535	5	-5	9	3.4	-2
CC(=O)Cn1ncc(N2CCOCC2)c(Br)c1=O	-12	4321	-2	8	2	-0.7	7
COc1ccc(/C=N/NC(=O)CC2N=C(Cc3ccccc3)NNC2=O)cc1OC (centres undefined)	-5	2068	4	.	.	.	.
CCCc1n[nH]c2c1C(=NO)CCC2	.	.	.	6	0	-1.9	9
O=C(CSC1=NCCS1)Nc1ccc2ccccc2c1	-27	1985	11	13	6	8.9	-3
CCOc1ccccc1N	-18	6035	.	0	2	4.1	10
Cc1ccc(C(C)C)c(OCC(=O)NN=Cc2ccc(S(=O)(=O)O)o2)c1	.	.	.	6	-8	1.2	2
c1ccc(-n2ncc(-c3nn[nH]n3)n2)cc1	-13	3289	-4	-5	-7	-8.4	2
Cc1nn(C)cc1C1Nc2ccccc2C(=O)N1O (centres undefined)	-8	4074	-1	3	2	5.3	-2
